AID504770 = growth inhibitors of E. coli YBA685 in a screen for V. cholerae RctB (chromosome II replication) inhibitors; E. coli YBA685 rctB-dependent plasmid, OD600 growth, 3 h; active compounds read low; z-score (no concentration beside the values); 0.27% of 130,000 active;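 active means z-score under -2 on both plates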;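 further: wells of about 30 µL received 100 nL stock; score is relative to mean and SD of the test wells; the first replicate is given; strong numbers were not always called active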
CapD inh = blocks the Bacillus anthracis CapD enzyme | AID 492967 | z-score (test concentration not listed) | purified CapD enzyme, fluorescence intensity read-out; active compounds read low; some hits fall short of the stated cut | 0.23% of 140,000 active;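 active means z-score under -4 in either of two replicates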;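 further: stock transfer was 100 nL into about 40 µL; score is relative to mean and spread of the plate; one replicate is shown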
Numbers without * were called inactive; / = no result given. Not all compounds are listed; rates above refer to the full screens.

Below each compound – AID504770 | CapD inh
CC(C)CCNC(=O)C1CCN(c2nc3ccccc3o2)CC1
→ -0.55 | 2.7
O=C(Nc1cccnc1)c1ccccc1Oc1ccccc1
→ -0.65 | /
CCOc1cc2c(cc1CNC(=O)c1cccnc1)OC(C)C2 (centres undefined)
→ 0.4 | /
CC(=O)Nc1ccc2nc(SCc3c(Cl)cccc3[N+](=O)[O-])sc2c1
→ / | 0.32
CCOC(=O)c1noc(NC(=O)Cc2ccccc2OC)c1-c1ccccc1
→ 0.45 | /
Fc1ccc(CN2CCCN(Cc3ccc(F)cc3)C2c2csnn2)cc1
→ -0.7 | -0.55
CCCc1nc2c(sc(=S)n2-c2ccccc2)c(=O)[nH]1
→ 1.9 | -0.8
Cc1ccccc1NS(=O)(=O)c1ccc2[nH]cc(C(=O)NCCCN3CCOCC3)c(=O)c2c1
→ 0.2 | 7.1
CCc1nnc(NC(=O)C2c3ccccc3C(=O)N(C)C2c2cccs2)s1 (centres undefined)
→ -1.1 | 0.08
COC(=O)Nc1c(C)cc(C)cc1C
→ -0.8 | -0.045
Cc1ccc(C2CC(c3cccs3)=NN2C(=O)CSc2nnc(CNC(=O)c3cccc([N+](=O)[O-])c3C)n2C)cc1 (centres undefined)
→ / | 0.79
CNc1ccccc1C(=O)NCCc1ccncc1
→ / | 89
CC(C)C(=O)Nc1ccccc1C(F)(F)F
→ -0.8 | -0.24
CN(CC(=O)Nc1sccc1C#N)C1CCCCC1
→ 0.85 | /
COc1ccc(P(=O)(CC(=O)O)c2ccc(OC)cc2)cc1
→ 1.1 | -0.08
Cc1c(C(=O)Cc2c(O)c3ccccc3oc2=O)sc2nc(C(F)(F)F)nn12
→ 1.1 | -0.06
C/C(=C/C(=O)C(F)(F)F)N1CCN(S(=O)(=O)/C=C/c2ccccc2)CC1
→ -0.95 | /
CCOC(=O)C1=C(C)NC(S)=C(C#N)C1c1ccsc1 (centres undefined)
→ / | -0.27
CC12CCC3C4CCCC=C4CCC3C1CCC2O (centres undefined)
→ / | 0.43
CC(C)(C)SCCNC(=O)/C=C/c1ccccc1
→ / | -0.76
CCOC(=O)c1sc2nc(CC(=O)OC)nc(Nc3cc(OC)ccc3OC)c2c1C
→ / | -0.2
COC(=O)Cn1c(=NC(=O)c2ccc(S(=O)(=O)N3CCCC3)cc2)sc2cc(NC(C)=O)ccc21
→ 0.25 | /
CCOc1ccc(C2C(N3C(=O)c4ccccc4C3=O)C(=O)N2c2ccc(C)c(Cl)c2)cc1 (centres undefined)
→ / | -0.095
CCOC(=O)c1c(-c2ccccc2)csc1NC(=O)C(F)(F)F
→ 0.7 | 0.52
Cc1noc(C)c1NC(=O)NC1CCCc2ccccc21 (centres undefined)
→ -1.1 | 0.18
CC(C)(C)C(=O)Oc1ccc2cc(-c3ccc4ccccc4n3)c(=O)oc2c1
→ 0.6 | -0.73
CC1CC(C)CN(S(=O)(=O)c2ccc(F)c(C(=O)NCc3ccccc3)c2)C1 (centres undefined)
→ -0.2 | 0.36
C=CCOC(=O)c1cc(-c2ccc(C=C3C(=O)N(C)C(=O)N(C)C3=O)o2)ccc1Cl
→ / | 0.9
Fc1ccc(Cc2nc3ccccc3[nH]2)cc1
→ -2 | -0.79
FC(F)(F)c1cccc(NC(=S)N2CCCC2)c1
→ -0.65 | 0.035
COc1ccc(S(=O)(=O)Nc2cccc3cc(C(=O)NCc4ccncc4)[nH]c23)cc1
→ / | -0.14
Cc1ccc(C(=O)Oc2cc(C)cc(OC(=O)c3ccc(C)cc3)c2)cc1
→ -0.15 | 55
O=C(Nc1ccc(F)cc1F)c1cccn(Cc2cccc(Cl)c2)c1=O
→ / | -0.47
O=C(NNC(=O)c1ccccc1-n1cccc1)OCC1CCCCCC1
→ / | 0.73
O=C1C=CC(=O)N1CC(c1ccccc1)c1ccccc1
→ -0.5 | -0.14
O=C1C2C(c3ccc(Br)cc3)OC3(C(=O)c4ccccc4C3=O)C2C(=O)N1c1ccc(F)cc1 (centres undefined)
→ / | 0.67
O=C(O)CN1C(=O)/C(=C2\SC(=S)N(C(Cc3ccccc3)C(=O)O)C2=O)c2ccccc21 (centres undefined)
→ / | -0.28
COC(=O)Cn1c(Cl)nc2c1c(=O)n(C)c(=O)n2C
→ -0.25 | 0.26
O=C(Nc1ccc2n[nH]nc2c1)c1cccc(Cl)c1
→ -0.6 | -0.81
Cc1nc(C)c(-c2ccnc(N)n2)s1
→ -0.75 | 82
S=C1NCN(C(Cc2ccccc2)c2ccccc2)CN1 (centres undefined)
→ -0.3 | -0.79
O=C1C(=Cc2cn[nH]c2-c2ccc(F)cc2)C(=O)c2ccccc21
→ 0.4 | -0.21
CC1(C)Cc2cccc(Oc3ccc(S(=O)(=O)N4CCCC4)cn3)c2O1
→ -0.3 | /
CC1(C)Cc2cccc(OCC(=O)OCC(=O)N3CCN(c4ccccc4)CC3)c2O1
→ -0.15 | /
COC(=O)c1c(C(=O)OC)c(-c2cccc(Cl)c2)n2c1CS(=O)(=O)C2
→ / | -0.09
Cc1cccc(CNCCc2ccccc2)n1
→ -0.25 | /
CC(=O)Nc1cc(C(=O)N2CCc3ccccc3C2)ccc1Sc1ccc(Cl)cc1
→ 0 | 0.68
Cc1ccccc1C(=O)N1C(=O)c2ccccc2S1(=O)=O
→ 0 | 0.32
NCCc1c[nH]c2ccc(Cl)cc12
→ -0.35 | 0.36
COC(=O)c1c(C)nn(-c2ccccc2)c1-c1cc(C)on1
→ -0.6 | -0.68
CCC1C(=O)NCCN1C(=O)/C=C/c1ccccc1 (centres undefined)
→ 0.7 | /
C=CCSc1nc2ccsc2c(=O)n1-c1ccccc1
→ 0.05 | -0.55
CN1C(=O)N(C(=O)c2ccccc2)C(=O)C(C)(C2=CCCCC2)C1=O (centres undefined)
→ -0.5 | 0.22
COC(=O)c1cc(CSc2nnc(-c3cccs3)n2N)oc1C
→ -0.5 | /
COc1ccc(CC(CC(=O)O)C(=O)Nc2ccccc2)cc1 (centres undefined)
→ -0.65 | 0.65
CCCCN(C)S(=O)(=O)c1ccc2c(c1)CCN2C(=O)CCC(=O)O
→ -0.95 | 0.12
Clc1ccc(-c2cn3ccc4ccccc4c3n2)cc1
→ / | 28
Cc1cc(C)n(CC(O)Cn2c3ccccc3c3ccccc32)n1 (centres undefined)
→ -0.55 | /
Cc1ccccc1OCC(=O)NCCC1=CCCCC1
→ 0.15 | 0.24
Cc1cccc(CS(=O)(=O)Cc2ccc(C(=O)NCCC3=CCCCC3)o2)c1
→ 1.1 | 0.17

(continued)
Below each compound – AID504770 | CapD inh
CCOC(=O)c1sc(N)c(C#N)c1COC(=O)c1nn(CC)c(=O)c2ccccc12
→ 0.6 | /
O=C(OCCN1C(=O)c2ccccc2C1=O)Oc1ccccc1
→ -0.45 | /
O=C(CN1CCCCCC1=O)N/N=C/c1c(Cl)nc2sccn12
→ -0.8 | /
COc1ccc(NC(=O)c2ccc(OC)c(OC)c2)cc1
→ -0.9 | 0.03
O/N=C1\Cc2cccc3cccc1c23
→ 0.2 | /
O=C(/C=C/OC(=O)c1ccc(C(F)(F)F)cc1)c1ccc(F)cc1
→ -0.15 | -0.72
Cc1ccc2[nH]c3nc(SCC(=O)O)nnc3c2c1
→ 0.05 | -0.4
COc1ccc(Cl)cc1NC(=O)c1cc2c(Cl)nc3ccc(C)cc3c2s1
→ -1.1 | -0.27
Nc1ccc(Oc2ccc(Cl)cc2C2CCCCC2)nc1
→ / | 12
COC(=O)c1cc2ccc(C)cc2[nH]1
→ -0.35 | 5.9
COc1ccc(C2CS(=O)(=O)CS(=O)(=O)C2)cc1
→ / | -0.39
COc1ccc(-n2cnnc2SCc2ncc(-c3ccccc3)o2)cc1
→ 0.4 | /
CCOc1ccc(Cc2nnc(N)s2)cc1OCC
→ -0.3 | 0.45
CCOc1ccc(S(=O)(=O)N2CCN(c3ccc(C(C)=O)cc3)CC2)c2cccnc12
→ / | 1.5
Cc1cc(Cl)ccc1N1C(=O)C(N2C(=O)c3ccccc3C2=O)C1c1ccc(F)cc1 (centres undefined)
→ / | -0.21
O=S(=O)(NCCCN1CCOCC1)c1ccccc1
→ -0.8 | 0.18
CC1=C(C)C/S(=N\S(=O)(=O)c2ccccc2)N(S(=O)(=O)c2ccccc2)C1 (centres undefined)
→ / | 0.28
CCOC(=O)c1ccc(NC(=O)Cc2noc3ccccc23)cc1
→ -0.45 | 0.16
CC(CO)NCc1ccccc1 (centres undefined)
→ -0.1 | /
CSc1nnc(CCN2CCN(C)CC2)n1C
→ -0.3 | 0.28
Cn1c(CCC(=O)NNC(=O)c2cc3ccccc3s2)nc2ccccc21
→ / | 0.88
O=C(CSc1nnc(-c2ccco2)o1)OCc1cc(F)cc2c1OC(c1ccccc1)OC2 (centres undefined)
→ -1.4 | /
CCCCn1c(NC(=O)C(C)C)c(C#N)c(-c2ccccc2)c1-c1ccccc1
→ / | -0.2
CCc1ccccc1NC(=O)Cn1nnc(C(=O)NCCc2ccccc2)c1N
→ 2.1 | -0.39
CCCCNC(=O)Cc1n[nH]c(=O)c2ccccc12
→ 0.15 | /
COc1ccc(OC)c(/C=N/NC(=O)c2cc(Cl)ccc2OC)c1
→ / | 3.2
Cc1ccc(-n2c(SCCc3c(C)noc3C)nnc2-c2ccc(Cl)cc2)cc1
→ -0.4 | /
N/C(=N\S(=O)(=O)c1cc(Cl)sc1Cl)c1ccncc1
→ / | 0.66
Cc1ccccc1NS(=O)(=O)c1ccc(CCN2C(=O)c3cccnc3C2=O)cc1
→ -0.25 | -0.32
Cc1cc(Cl)ccc1OCC(=O)OCC(=O)N1CCCCC1
→ 1.6 | 0.53
O=C1Nc2ccc(Br)cc2C(c2ccccc2Cl)=NC1O (centres undefined)
→ / | -0.15
O=C(c1cc2cc(Br)ccc2oc1=O)N1CCSC1c1ccccc1 (centres undefined)
→ / | 0.3
O=C(c1ccc(F)cc1)N1CCCCC(Sc2nnc3sc4ccccc4n23)C1=O (centres undefined)
→ -0.75 | 7.5
Cc1ncsc1C(=O)O
→ -0.5 | /
CC(SCC(=O)N1c2ccccc2CC1C)C(=O)O (centres undefined)
→ 1.6 | /
CCOC(=O)Nc1nc2ccccc2[nH]1
→ / | -0.17
O=C(O)CSc1ccccc1C(=O)O
→ -0.35 | 0.68
CC(C)c1ccc(C2=C(O)c3ccccc3C(=O)C2=O)cc1
→ 1 | -0.12
Clc1ccc2c(c1)c1ccccc1n2CN1CCOCC1
→ -0.65 | 1.2
C/C=C(/C(=O)O)c1ccccc1OC
→ -0.15 | -0.16
N#CCCCSc1nc2ccccc2c(=O)n1Cc1ccccc1
→ -0.25 | /
O=C(Nc1c[nH]c2ccccc12)N1CCCc2ccccc21
→ -0.35 | /
CCOC(=O)C1=C(C)NC2=C(C(=O)C(C(=O)OCC)C(c3ccc(OC)cc3)C2)C1c1ccc(OC)cc1 (centres undefined)
→ / | 1.7
CC1CCN(c2nc3nonc3nc2N2CCC(C)CC2)CC1
→ 0.85 | -0.59
CS(=O)(=O)N1Cc2ccccc2CC1C(=O)OCc1nnc(-c2ccc(Cl)cc2)o1 (centres undefined)
→ 0.05 | /
COc1ccc(-c2nn(C)c3ccccc23)cc1
→ -1.1 | 7.3
Cc1cccc(C(=O)NNC(=O)OCCc2cccc(F)c2)c1O
→ / | 1.5
COC(=O)c1ccccc1NC(=O)n1ncc2cc(Cl)ccc21
→ 0.35 | 6.5
O=S(=O)(NC1CCCCC1n1cc(-c2ccccc2)nn1)c1ccccc1 (centres undefined)
→ 0.1 | 0.47
O=C(Nc1ccccc1)C1C2C=CC3(O2)C1C(=O)N(C1CCCC1)C3C(=O)NC1CCCCC1 (centres undefined)
→ -0.5 | /
CSc1ncccc1C(=O)OCCCCN1C(=O)c2ccccc2C1=O
→ 0.55 | /
CCCCC1(C)NCCN2C(=O)CSC21 (centres undefined)
→ -0.5 | -0.23
O=C(Nc1ccccn1)c1ccc2c(c1)OCCO2
→ / | 0.015
COC(=O)c1cc(S(=O)(=O)NC2CCN(Cc3ccccc3)CC2)cn1C
→ -0.3 | /
O=C(O)C(O)c1ccc(Br)cc1 (centres undefined)
→ 0.1 | 0.54
CCOC(=O)c1c(NC(=O)c2cnn3c(C(F)(F)F)cc(-c4ccco4)nc23)sc2c1CCCC2
→ / | -0.94
CCC(C)C(=O)Nc1ccc(C(C)CC)cc1 (centres undefined)
→ -0.2 | /
NNC(=O)c1ccc(C(F)(F)F)cc1
→ -1.3 | -0.1
CCc1ccc(Oc2c(C(F)(F)F)oc3c(CN4CCCCC4)c(O)ccc3c2=O)cc1
→ -0.25 | 75

Given field by field: part of the list above.
N#CCCCSc1nc2ccccc2c(=O)n1Cc1ccccc1
  AID504770: -0.25
  CapD inh: /
O=C(Nc1c[nH]c2ccccc12)N1CCCc2ccccc21
  AID504770: -0.35
  CapD inh: /
CCOC(=O)C1=C(C)NC2=C(C(=O)C(C(=O)OCC)C(c3ccc(OC)cc3)C2)C1c1ccc(OC)cc1 (centres undefined)
  AID504770: /
  CapD inh: 1.7
CC1CCN(c2nc3nonc3nc2N2CCC(C)CC2)CC1
  AID504770: 0.85
  CapD inh: -0.59

Some of these compounds in order of formula weight, low to high:
Below each compound – AID504770 | CapD inh
CCOC(=O)Nc1nc2ccccc2[nH]1
→ / | -0.17
O=C(O)CSc1ccccc1C(=O)O
→ -0.35 | 0.68
O=S(=O)(NC1CCCCC1n1cc(-c2ccccc2)nn1)c1ccccc1 (centres undefined)
→ 0.1 | 0.47
CS(=O)(=O)N1Cc2ccccc2CC1C(=O)OCc1nnc(-c2ccc(Cl)cc2)o1 (centres undefined)
→ 0.05 | /
CCOC(=O)C1=C(C)NC2=C(C(=O)C(C(=O)OCC)C(c3ccc(OC)cc3)C2)C1c1ccc(OC)cc1 (centres undefined)
→ / | 1.7

Assay outcomes deposited in PubChem by ICCB-Longwood Screening Facility, Harvard Medical School.
